HSV replic up: HSV replication enhancement | actives 0.005% (n = 220,000) | HSV replication augmentation in cells, fold increase | AID 1956 | maximum fold increase;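 active = peak rise of 1.5-fold or more in the series; tested in PC3 cells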;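 also: first round at 10 µM; read as green reporter fluorescence; hits show the peak of a series up to 25 µM; 1 = signal of infected wells without compound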
GALR2 agonist: GALR2 (human) receptor agonism | O43603 | GALR2-expressing cells, agonist activation read-out | activation, %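 (tested at 5 µM)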 | actives 0.48% (n = 140,000);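 active = above mean plus 3 SD of all compounds, about 5% in these data, not always enough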;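 also: 0% = vehicle buffer wells and 100% = reference agonist at full effect; tested in CHO reporter cells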
Target sequence (O43603 whole entry, looked up): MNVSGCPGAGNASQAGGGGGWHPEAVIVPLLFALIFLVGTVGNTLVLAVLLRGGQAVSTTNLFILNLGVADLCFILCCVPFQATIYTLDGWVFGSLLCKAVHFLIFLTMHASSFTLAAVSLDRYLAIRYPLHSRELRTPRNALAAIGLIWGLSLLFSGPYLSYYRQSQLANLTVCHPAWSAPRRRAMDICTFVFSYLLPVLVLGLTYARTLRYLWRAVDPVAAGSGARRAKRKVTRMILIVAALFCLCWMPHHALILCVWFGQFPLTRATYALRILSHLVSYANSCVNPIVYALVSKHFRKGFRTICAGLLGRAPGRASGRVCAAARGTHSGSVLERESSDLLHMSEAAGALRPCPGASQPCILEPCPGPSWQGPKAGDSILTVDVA
RGS16-Gao HTS: regulators of human RGS16-Galphao interaction. bead-based flow cytometry RGS16-Galphao binding, fluorescence; actives lie on both sides. binding response (% of control), % at 10 µM. actives 0.38% (n = 220,000). AID 1441;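 active = below 25% or above 175%, edge rows of some plates excepted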;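 also: Galphao activated by GDP with aluminum fluoride before binding; 100% = wells without compound and 0% = beads without RGS; some results beyond the cut were filed as inactive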
Target sequence (O15492 whole entry, looked up): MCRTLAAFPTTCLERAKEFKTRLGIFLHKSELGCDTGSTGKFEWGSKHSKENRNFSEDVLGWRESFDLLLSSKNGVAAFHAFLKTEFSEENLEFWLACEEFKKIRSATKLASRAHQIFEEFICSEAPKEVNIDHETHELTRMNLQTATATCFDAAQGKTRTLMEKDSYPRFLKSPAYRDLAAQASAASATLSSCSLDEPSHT
Target sequence (P09471 whole entry, looked up): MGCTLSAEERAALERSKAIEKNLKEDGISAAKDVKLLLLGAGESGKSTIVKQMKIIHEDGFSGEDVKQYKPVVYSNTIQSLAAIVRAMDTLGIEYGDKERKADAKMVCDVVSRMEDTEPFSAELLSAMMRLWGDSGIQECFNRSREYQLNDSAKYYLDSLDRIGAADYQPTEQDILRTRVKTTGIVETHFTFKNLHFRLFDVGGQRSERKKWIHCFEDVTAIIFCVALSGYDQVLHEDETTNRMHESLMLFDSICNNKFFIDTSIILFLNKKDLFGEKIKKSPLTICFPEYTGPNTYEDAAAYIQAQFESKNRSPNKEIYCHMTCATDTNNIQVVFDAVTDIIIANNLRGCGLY
INS promoter inh: TRM-6 insulin promoter activity inhibition; TRM-6 cells (human fetal islet line), insulin promoter-eGFP reporter, imaging; reporter expression induced with tamoxifen; actives 0.9% (n = 130,000); inhibition, % at 2 µM; AID 1273;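 active = inhibition above the mean plus 3 SD, with well images judged a real hit on visual review, cut at about 60% in these data, passing the limit was not always enough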
PKD1 kinase inh: blocks activity of human protein kinase D1. PKD1 kinase fluorescence polarization assay. actives 0.056% (n = 200,000). Q15139. AID 797. inhibition, %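 (about 10 µM by stock and volumes)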;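 active = inhibition of 50% or more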;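 also: controls were vehicle for no effect and a reference inhibitor for full effect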
INS promoter inh cell count: second read-out of INS promoter inh, no call of its own (marks repeat the call); normalized cell count, %; measured here: cell count, toxicity; reference of the scale not given here;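 cells exposed to compound for 48 h; stained nuclei by imaging scaled within each plate; lower means fewer cells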
HSV replic up primary fold: second read-out of HSV replic up, no call of its own (marks repeat the call); fold increase; compound at 10 µM; measured here: primary screen fold increase 10 uM; tested in PC3 cells;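 GFP signal in the first replicate; 1 = infected wells without compound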
The depositor's hits bear a star; i = inactive; nt = not tested or not shown. An unsorted share of the library; overall some 1.2% were active at least once.

SMILES	HSV replic up	HSV replic up primary fold	GALR2 agonist	RGS16-Gao HTS	INS promoter inh	INS promoter inh cell count	PKD1 kinase inh
CCOC(=O)N1CCN(C(=S)Nc2ccccc2C)CC1	i	0.97	0.2	105	45	121	-5
CC(C)n1cnc2c(N(C)c3ccccc3)nc(N(CCN(C)C)Cc3ccccc3)nc21	i	0.52	nt	100	nt	nt	nt
Cc1ccc(NC(=O)Cn2ccsc2=N)c([N+](=O)[O-])c1	i	0.99	nt	102	nt	nt	-6
CC1(C)CC(=O)C2=C(C1)N(N1CCOCC1)C(N)=C(C#N)C2c1cccnc1 (stereo not given)	i	1	-1.8	103	1	127	6
COc1ccccc1N/C=C/c1onc(C)c1[N+](=O)[O-]	nt	nt	nt	101	-256	194	-9
COc1ccc2[nH]c(=O)c(CN(Cc3ccc4c(c3)OCO4)C(C)=O)cc2c1	i	0.91	-0.9	159	6	94	-3
CSc1nncn1/N=C/c1ccc2c(c1)OCO2	i	1.3	-3.2	96	9	171	-4
C/C(=N\O)C(=O)NCCN1CCCCC1	i	0.88	0.5	102	19	96	-3
CN1CCN(c2ccc(NC(=O)c3ccc(-c4ccc(Br)cc4)o3)cc2)CC1	i	0.69	nt	100	26	84	0
CC1Cc2ccccc2N1C(=O)COc1nc2ccccc2nc1N1CCOCC1 (stereo not given)	nt	nt	-2.8	122	nt	nt	-13
CCCC(CCC)=NNC(=O)c1ccccc1F	i	0.97	nt	98	nt	nt	1
O=C(NC1CCN(C(=O)c2cccs2)CC1)c1ccccc1	i	1.5	nt	97	nt	nt	nt
CC(C)N=C1NN=C(c2cccs2)CS1	i	0.87	nt	98	43	133	-2
COc1ccc(-c2csc(C3=C(O)CN(Cc4ccc(S(N)(=O)=O)cc4)C3=N)n2)cc1OC	i	1	-2.7	99	-93	72	-18
Cc1onc(-c2ccccc2Cl)c1C(=O)Nc1ccc(N2CCOCC2)cc1	i	0.88	-3.5	113	-7	54	3
COc1ccc(OCCC(=O)OCC(=O)Nc2cccc(S(=O)(=O)N3CCOCC3)c2)cc1	i	1	nt	109	nt	nt	7
CCOC(=O)N1CCN(C(=O)c2cn(CCOC)c(=O)c3c2c2ccccc2n3C)CC1	i	1.3	-1.0	99	nt	nt	6
CC1CCN(c2ccc(C(=O)O)cc2NS(=O)(=O)c2ccc(Br)cc2)CC1	i	1.1	-0.7	98	17	125	-10
CNC(=O)Nc1ccc2nc(C)oc2c1	i	0.98	nt	84	nt	nt	nt
Cc1ccc(C(=O)CC(C(=O)O)c2cn(CCC#N)c3ccccc23)cc1 (stereo not given)	i	0.91	-4.0	109	nt	nt	-7
Cc1[nH]n(-c2ccccc2)c(=O)c1/C=C1/C=c2ccccc2=N1	i	0.97	nt	100	-7	75	-6
N#Cc1ccc(C23CC4(C2)[C@H](CN(CC2CCCCC2)[C@@H]4c2ccccc2)C3c2ccc(C(F)(F)F)cc2)cc1 (stereo not given in full)	i	0.88	nt	108	nt	nt	nt
CCOC(=O)C1CCN(C(=O)C2c3ccccc3C(=O)N(C)C2c2ccc(OC)cc2)CC1 (stereo not given)	i	0.86	0.1	153	-30	65	2
CC1=CC(C)(C)NC(=S)N1c1cccc2cc(S(=O)(=O)O)ccc12	i	1.1	nt	101	nt	nt	nt
O=C(NCC1CCCO1)c1nnc(Cc2ccc(F)cc2)o1 (stereo not given)	nt	nt	-2.2	87	-30	112	1
(cont.)
SMILES	HSV replic up	HSV replic up primary fold	GALR2 agonist	RGS16-Gao HTS	INS promoter inh	INS promoter inh cell count	PKD1 kinase inh
O=S(=O)(NCc1cn2ccccc2n1)c1ccccc1F	i	1.1	nt	97	nt	nt	nt
O=C(CSc1nc(O)c(Cc2ccccc2)c(=O)[nH]1)Nc1nc2c(s1)CCCC2	i	0.79	nt	103	nt	nt	-2
CCN1CCC(=NNC(=O)CC23CC4CC(CC(C4)C2)C3)CC1	i	0.95	-0.9	101	nt	nt	8
Oc1ccc(/C(Cc2ccc3ccccc3n2)=N\Nc2ccccc2)c(O)c1	i	0.97	nt	104	nt	nt	2
COc1cc(SC)ccc1C(=O)OCC(=O)NC1CCCCC1	i	1.1	nt	96	nt	nt	0
CCCCOc1ccc(CNC(=O)NS(=O)(=O)c2ccc(OCC(C)C)cc2)cc1	i	0.74	0.5	100	-38	78	-13
O=C(CN1C2CCCC1CC(NC(=O)c1ccccc1)C2)Nc1nccs1 (stereo not given)	i	0.98	1.3	nt	25	88	-5
CC(=O)NNC1=Nc2ccccc2N(C)C(C)C1 (stereo not given)	i	1.1	-1.1	108	nt	nt	-5
Cc1cc2occ(CC(=O)Nc3nnc(C4CC4)s3)c2cc1C	i	0.98	-3.7	101	27	92	-11
Cc1nc(S(=O)(=O)N(C)Cc2ccccc2)c(C#N)c(C)c1Cl	i	1	-1.3	90	6	114	5
CC(SCc1ccccc1)C(=O)N/N=C/c1cc2c(cc1Br)OCO2 (stereo not given)	i	0.9	-1.2	109	nt	nt	7
O=C(NCCN1CCOCC1)c1ccc2c(c1)N(Cc1ccccc1)CCS2	i	1.3	-0.9	117	nt	nt	5
Cc1ccc(CNC(=O)CSCC(=O)O)cc1	i	1	-1.4	107	50	114	0
Cn1c(=O)c2c(-c3ccncc3)c3c(nc2n(C)c1=O)-c1ccccc1C3=O	nt	nt	1.2	nt	31	79	-5
COc1cccc(C(=O)NCC(=O)OCC(=O)Nc2ncc(Cl)cc2Cl)c1	i	1	nt	96	nt	nt	-1
Cc1cccc(OCC(=O)Nc2ccccc2N2CCN(C(=O)C(C)C)CC2)c1C	i	1	-0.5	101	-21	94	-4
Cc1cc(C)c2oc(C(=O)N(Cc3cccs3)C3CCS(=O)(=O)C3)cc(=O)c2c1 (stereo not given)	i	0.84	nt	103	nt	nt	nt
Cc1ccc(NC(=O)c2cc3ccccc3o2)cc1S(=O)(=O)N(C)C	i	0.84	-3.2	105	-35	28	-1
COC(=O)c1ccccc1NC(=O)CN1C(=O)C2CCCN2c2ncc(Cl)cc21 (stereo not given)	i	1	-1.6	112	35	129	-9
COc1ccc(NC(=O)C2(c3ccc(NC(=O)c4ccc(OC)c(OC)c4)cc3)CCCC2)cc1	i	0.94	-1.9	104	32	101	0
Cn1c(NC(=O)c2ccccc2)cc(=O)n(C)c1=O	i	0.91	-2.9	105	nt	nt	-1
CCN(CC)c1ccc(NC(=O)c2cccc(OC)c2)c(C)c1	i	0.56	-3.9	95	33	67	2
CC(=O)Nc1ccc(C(=O)N/N=C/c2ccccc2OCc2ccccc2)cc1	i	0.73	nt	102	nt	nt	-9
COCCn1c(=N)c(C(=O)NCCc2ccc(OC)cc2)cc2c(=O)n3cccc(C)c3nc21	i	0.86	-1.1	87	3	89	-2
CSc1cc(C)n(-c2ccc(Cl)cc2)c(=S)c1C(C)=O	i	0.91	-1.5	106	-21	71	-6

Full records as entered above.
Profile of Cc1ccc(NC(=O)c2cc3ccccc3o2)cc1S(=O)(=O)N(C)C = HSV replic up = i; HSV replic up primary fold = 0.84; GALR2 agonist = -3.2; RGS16-Gao HTS = 105; INS promoter inh = -35; INS promoter inh cell count = 28; PKD1 kinase inh = -1
Profile of CC(=O)Nc1ccc(C(=O)N/N=C/c2ccccc2OCc2ccccc2)cc1 = HSV replic up = i; HSV replic up primary fold = 0.73; GALR2 agonist = nt; RGS16-Gao HTS = 102; INS promoter inh = nt; INS promoter inh cell count = nt; PKD1 kinase inh = -9

The list goes on.
SMILES	HSV replic up	HSV replic up primary fold	GALR2 agonist	RGS16-Gao HTS	INS promoter inh	INS promoter inh cell count	PKD1 kinase inh
CCOC(=O)C1CCCN(C(=O)c2cc(=O)c3ccccc3o2)C1 (stereo not given)	i	0.91	-0.3	152	58	58	4
CC(C)NC(=O)/C=C/C(=O)O	i	0.95	nt	104	7	108	-1
CCOC(=O)c1c(NC2OC(=O)c3c2ccc(OC)c3OC)sc(C(=O)OC(C)(C)C)c1C (stereo not given)	i	0.84	-0.3	85	nt	nt	17
CCOc1ccc(/C=N/NC(=S)NC2CC3C=CC2C3)cc1 (stereo not given)	i	1.1	nt	95	nt	nt	nt
Cc1c2cccn2cc[n+]1C	i	0.88	0.7	104	7	50	-3
Cc1cc(C)c(S(=O)(=O)c2ccc(Cl)cc2)c(Cl)n1	i	0.82	nt	102	nt	nt	-2
CCC(CC)c1nnc(NC(=O)c2ccc(S(=O)(=O)N3CCc4ccccc4C3)cc2)s1	nt	nt	-1.4	87	-69	82	0
O=C(Nc1ccccc1C(=O)N1CCOCC1)c1ccc(CSc2ccccc2)cc1	i	1.1	nt	100	11	81	3
CCOc1cc(/C=N/N=C(\N)c2nonc2N)cc(Br)c1OCc1cccc2ccccc12	i	0.54	0.5	106	-3	167	5
COc1ccc(C(=O)/C=C/c2ccccc2C(F)(F)F)cc1	i	1.1	-1.0	93	nt	nt	-8
c1ccc(Nc2nc(NCC3CCCO3)c3ccccc3n2)cc1 (stereo not given)	i	0.7	nt	99	27	95	11
Cc1cccc(CN(CC(=O)N/N=C/c2cccs2)S(=O)(=O)c2ccc(Cl)cc2)c1	i	1.2	-0.4	86	-34	113	-3
CC1=CCC2C(=O)N(c3ccc(Br)cc3C)C(=O)C2C1 (stereo not given)	i	1	-4.8	99	45	119	-7
CC(C)=N/N=c1\scc(C)n1Cc1ccco1	i	1	nt	107	-25	161	-3

Structures shown so far that contain an aryl methoxy group (12):
SMILES	HSV replic up	HSV replic up primary fold	GALR2 agonist	RGS16-Gao HTS	INS promoter inh	INS promoter inh cell count	PKD1 kinase inh
COc1ccccc1N/C=C/c1onc(C)c1[N+](=O)[O-]	nt	nt	nt	101	-256	194	-9
COc1ccc2[nH]c(=O)c(CN(Cc3ccc4c(c3)OCO4)C(C)=O)cc2c1	i	0.91	-0.9	159	6	94	-3
COc1ccc(-c2csc(C3=C(O)CN(Cc4ccc(S(N)(=O)=O)cc4)C3=N)n2)cc1OC	i	1	-2.7	99	-93	72	-18
COc1ccc(OCCC(=O)OCC(=O)Nc2cccc(S(=O)(=O)N3CCOCC3)c2)cc1	i	1	nt	109	nt	nt	7
CCOC(=O)C1CCN(C(=O)C2c3ccccc3C(=O)N(C)C2c2ccc(OC)cc2)CC1 (stereo not given)	i	0.86	0.1	153	-30	65	2
COc1cc(SC)ccc1C(=O)OCC(=O)NC1CCCCC1	i	1.1	nt	96	nt	nt	0
COc1cccc(C(=O)NCC(=O)OCC(=O)Nc2ncc(Cl)cc2Cl)c1	i	1	nt	96	nt	nt	-1
COc1ccc(NC(=O)C2(c3ccc(NC(=O)c4ccc(OC)c(OC)c4)cc3)CCCC2)cc1	i	0.94	-1.9	104	32	101	0
CCN(CC)c1ccc(NC(=O)c2cccc(OC)c2)c(C)c1	i	0.56	-3.9	95	33	67	2
COCCn1c(=N)c(C(=O)NCCc2ccc(OC)cc2)cc2c(=O)n3cccc(C)c3nc21	i	0.86	-1.1	87	3	89	-2
CCOC(=O)c1c(NC2OC(=O)c3c2ccc(OC)c3OC)sc(C(=O)OC(C)(C)C)c1C (stereo not given)	i	0.84	-0.3	85	nt	nt	17
COc1ccc(C(=O)/C=C/c2ccccc2C(F)(F)F)cc1	i	1.1	-1.0	93	nt	nt	-8

Screening data deposited in PubChem BioAssay by several laboratories.
